# S aureus helic: S. aureus DNA helicase inhibition. purified S. aureus helicase, fluorescence unwinding assay; about half of the hits fall short of the stated cut. inhibition, %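 (tested at about 80 µM)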. 120,000 compounds, 0.05% hits;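 active = both duplicates at 50% or more, or one of them with a favoured structure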;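 also: 0% = mean of negative control wells and 100% = mean of positive control wells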
# MgrA DNA FP: modulators of Staphylococcus aureus MgrA DNA binding; fluorescence polarization; inhibition, %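 (about 10 µg/mL by stock and volumes)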; 84,000 compounds, 0.13% hits;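 active = above 50% in either of two replicates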;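 also: 0% = protein plus DNA without compound and 100% = DNA alone without protein; higher means less MgrA bound to DNA so lower polarization; one replicate is shown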
# Starred values were filed as active, the others as inactive; / = no result given.
SMILES,S aureus helic,MgrA DNA FP
COc1cc(Cl)c(NC(=O)c2cccc(C(F)(F)F)c2)c(OC)c1,/,-1.3
O=C(/C=C/c1ccccc1)NC1CCSC1=O (stereo not drawn),-2,2.8
CNC(=O)CCCn1nc(C)c2c(C)n(-c3ccc(C)cc3)nc2c1=O,-19,/
COc1ccc2nc(C)cc(N3CCOCC3)c2c1,5,0.5
CS(=O)(=O)Nn1cnc2ccccc2c1=O,7,2.0
CC(=O)Nc1ccc(S(=O)(=O)NCC(=O)OCc2cc(=O)n3cc(Br)ccc3n2)cc1,-12,/
Cc1nc(N2CCSCC2)ncc1S(=O)(=O)c1ccc(Cl)cc1,/,-2.3
O=C(CN1CCC(NC(=O)NC2CCCCC2)CC1)NCc1ccccc1,5,-0.7
CC(C)(C)c1ccc(-c2nnc(CS(=O)(=O)c3ccc(Cl)cc3)o2)cc1,/,-2.1
O=C(c1ccc(C(F)(F)F)cc1)N1CCN(c2cc(C(F)(F)F)ccn2)CC1,/,-1.1
COC(=O)Nc1ccccc1NC(=O)OC,5,2.6
CNC(=O)COC(=O)c1nc(Cl)c(Cl)c(Cl)c1Cl,-6,/
O=C(NC(Cc1ccccc1)C(=O)O)c1ccc(Cl)cc1 (stereo not drawn),/,-2.6
COc1ccc2c(C)cc(Sc3nnnn3-c3ccccc3)nc2c1,2,-1.9
CC1=CC(=O)N2OC(C)=CC2N1 (stereo not drawn),/,-3.2
CCc1ccc(C(=O)NC(=S)Nc2ccc3[nH]c(=O)[nH]c3c2)cc1,-43,/
Cc1scc(CN2CCN(C(=O)c3ccco3)CC2)c1C,12,/
CCSC1=N/C(=C\c2ccc(Br)s2)C(=O)S1,1,5.6
N=C1N(c2ccc(Cl)c(Cl)c2)C(=O)NC12CCCC2,2,/
CCn1c(=O)/c(=C2/Sc3ccc(Cl)cc3N2C)s/c1=C1/C(=O)N(C)N=C1C,6,1.6
COc1ccc(/C=C2\N=C(SCC(=O)N3CCN(C(=O)c4ccco4)CC3)N(c3cc(C)cc(C)c3)C2=O)cc1,-8,/
O=c1[nH]c(-c2ccc(S(=O)(=O)N3CCCC3)cc2)nc2sc3c(c12)CCCC3,2,4.0
Cc1ccccc1CS(=O)(=O)CC1Nc2cc(C(=O)O)ccc2NC1=O (stereo not drawn),-22,/
Cc1[nH]c2ccccc2c1SCCNC(=O)c1ccccc1,-18,/
CC1N=C2c3ccccc3N=C(SCc3ccc(F)cc3)N2C1=O (stereo not drawn),-2,0.6
Cc1cc(C)c(C2=CSC3=NS(=O)(=O)CCN23)c(C)c1,0,/
O=C(Cn1ncc(Cl)c(Cl)c1=O)N1CCCc2ccccc21,2,/
O=C1CN(C(=O)c2ccc3c4c(cccc24)CC3)c2ccccc2N1,11,7.9
N/C(=N\N=C\c1ccccc1)SC1CC(=O)N(c2ccccc2)C1=O (stereo not drawn),-5,-5.0
CSc1ccccc1NC(=O)CSC1=NCCN1,-7,/

# 4 of the compounds above, with each value named:
Cc1[nH]c2ccccc2c1SCCNC(=O)c1ccccc1
  S aureus helic = -18	MgrA DNA FP = /
CC1N=C2c3ccccc3N=C(SCc3ccc(F)cc3)N2C1=O (stereo not drawn)
  S aureus helic = -2	MgrA DNA FP = 0.6
Cc1cc(C)c(C2=CSC3=NS(=O)(=O)CCN23)c(C)c1
  S aureus helic = 0	MgrA DNA FP = /
O=C(Cn1ncc(Cl)c(Cl)c1=O)N1CCCc2ccccc21
  S aureus helic = 2	MgrA DNA FP = /

# Further compounds follow.
SMILES,S aureus helic,MgrA DNA FP
CC(C)CC(=O)Nc1ccc(C(=O)O)cc1,-23,/
C=CCN(C(=O)Cn1c(=O)n(-c2ccc(C)cc2)c(=O)c2sccc21)c1ccccc1,3,0.7
COc1cc(OC)c([N+](=O)[O-])c(OC)c1[N+](=O)[O-],/,3.7
CNC(=S)NCc1ccc(-c2csnn2)cc1,/,-2.0
Cc1ccc(OC(=O)COc2ccc3ccccc3c2)cc1,-2,-4.7
CN1C(=O)S/C(=C\c2ccc(N(C)C)cc2)C1=O,-14,0.4
Cn1nnnc1SCc1ccccc1,-4,/
CCOc1ccc(C(=O)N2CCC(C(=O)OC)CC2)cc1,2,0.8
COC(=O)C1=[N+]([O-])OC(C(=O)OC)C1c1c[nH]c2ccccc12 (stereo not drawn),7,2.4
COc1ccc(-c2ccc(C#N)c(SCC#N)n2)cc1OC,13,-1.8
Cc1cccc(CCN2CCC(C(=O)c3ccc(NS(C)(=O)=O)cc3)CC2)n1,/,3.7
C1=CCC(CNCCN2CCOCC2)CC1 (stereo not drawn),3,0.8
COc1cccc(C2C(C#N)=C(N)Oc3c2c(=O)n(C)c(=O)n3C)c1 (stereo not drawn),12,-1.1
COC(=O)c1ccc2nc(C)c(C)nc2c1,/,-2.4
CC(C)N(Cc1ccccc1)C(=O)c1cc(-c2ccccc2)n[nH]1,-26,/
O=C(/C=C/c1ccco1)OCc1cccc(C(F)(F)F)c1,-5,/
CC1C/C(=C\c2cccnc2)C(=O)/C(=C/c2cccnc2)C1 (stereo not drawn),-12,/
O=C(c1cc(S(=O)(=O)N2CCCC2)c(Cl)cc1Cl)N1CCCC1,-8,-1.8
S=C1NC2=C(CCc3ccccc32)C(c2ccccc2)N1 (stereo not drawn),12,0.8
Cc1ccccc1CSCC(=O)NCc1ccccc1,5,-0.1
Cn1c(=O)c(-c2ccccc2N)nc2ccccc21,8,/
Cc1ccc(NC(=O)Cn2cc3c(n2)CCC(C)C3)c(Cl)c1 (stereo not drawn),-12,/
COc1cc(/C=C2\N=C(c3ccccc3F)OC2=O)cc(Br)c1OC(C)=O,/,2.7
Cc1cccn2cc(-c3ccc(NC(=O)CC(C)C)cc3)nc12,-11,/
CC(=C(C#N)C#N)c1ccc(Br)cc1,-27,-0.6
O=C(C1CCCO1)N1CCN(c2ccccn2)CC1 (stereo not drawn),15,1.3
CC(C)CCNC(=O)c1cc2c(s1)-c1ccccc1S(=O)(=O)C2,-1,/
CSc1sc(C(=O)N2CCCCC2)c(-c2cccs2)c1C#N,/,3.5
CC(C)NC(=O)c1cccc(N2CCCS2(=O)=O)c1,2,/
O=S1(=O)CCN(OCc2ccc(C(F)(F)F)cc2)CC1,/,-0.9
CC(C)(C)C(=O)CNS(=O)(=O)c1ccc(S(=O)(=O)N2CCCC2)cc1,-12,2.4
CC(NCc1c(C(=O)O)n(C)c2ccccc12)C12CC3CC(CC(C3)C1)C2 (stereo not drawn),16,0.1
COc1ccc(NC(=O)C(Cc2ccccc2)NS(=O)(=O)c2cccc3cccnc23)cc1 (stereo not drawn),6,1.2
O=C(Oc1ccc2c(c1)OCO2)c1ccncc1,13,/
O=S(=O)(Cc1ccccc1)N1CCN(Cn2c(SC(F)F)nc3ccccc32)CC1,6,/
CC(C)NC(=O)Cn1ncc2c1-c1ccccc1OC2,10,/
O=C(Cn1c(=O)c2ccccc2n2nncc12)Nc1ccc(Br)cc1,17,-3.7
Cc1csc2ncnc(N3CCN(S(=O)(=O)c4cccc(C(F)(F)F)c4)CC3)c12,3,/
O=C(CCCCl)Nc1ncnc2c1cnn2-c1ccccc1,33,-2.6
CC1CC(c2ccccc2)n2nc(N)nc2N1 (stereo not drawn),-9,17
O=C(c1cccc(C(F)(F)F)c1)c1ccc2ccccc2n1,/,2.9
O=C(Nc1ccc2oc(=O)ccc2c1)c1cccs1,9,-2.5
CCCCn1c(SCC(=O)NCc2ccccc2)nc2c(sc3ccccc32)c1=O,7,0.0
COc1ccc(CSc2nncn2N)cc1,-12,2.6
NNC(=O)C1C2CCCCC21 (stereo not drawn),-10,-4.3
CCOc1ccc(-c2nc(NC(C)=O)c3c(=O)oc4ccccc4c3n2)cc1,0,/
CC1(C)Cc2ccccc2-c2cc3nc4ccccc4nc3n21,-42,/
CCc1nc(SC)ncc1C(=O)NCCN1CCN(c2cccc(Cl)c2)CC1,-30,/
Cn1nc(NCc2ccc(Cl)cc2)c(=O)n(C)c1=O,-8,/
O=C(CSc1nc(SCC(=O)c2ccccc2)c2ccccc2n1)c1ccccc1,/,-1.3

# Reprinted at random: 5 compounds from above
SMILES,S aureus helic,MgrA DNA FP
CCCCn1c(SCC(=O)NCc2ccccc2)nc2c(sc3ccccc32)c1=O,7,0.0
CC1(C)Cc2ccccc2-c2cc3nc4ccccc4nc3n21,-42,/
O=C(Nc1ccc2oc(=O)ccc2c1)c1cccs1,9,-2.5
Cn1nc(NCc2ccc(Cl)cc2)c(=O)n(C)c1=O,-8,/
O=C(c1cccc(C(F)(F)F)c1)c1ccc2ccccc2n1,/,2.9

# Remaining list, next part
SMILES,S aureus helic,MgrA DNA FP
COc1ccc2c(c1)CCC1Sc3ccccc3N=C21 (stereo not drawn),9,/
Cn1c(SCC(=O)Nc2ccc(F)cc2F)nnc1-c1c[nH]c2ccccc12,22,/
N#Cc1ccsc1NC(=O)c1ccccc1,-21,/
Cc1nnc(SCC#N)n1-c1ccccc1,-19,1.5
COc1ccc(C)cc1NC(=O)COc1ccccc1F,-9,-0.9
Cc1cc(NC(=O)c2ccccc2C)n(-c2nc3ccccc3[nH]2)n1,-26,-0.8
Cc1ccc(NC(=O)C(Cc2c[nH]c3ccccc23)NC(=O)C(c2ccccc2)c2ccccc2)cc1 (stereo not drawn),5,-2.8
Cc1onc(-c2ccccc2)c1C(=O)Nc1ccc2c(C)cc(=O)oc2c1,-9,/
O=C(NCc1nnc(SC/C=C/c2ccccc2)o1)c1ccco1,-12,/
CC1CC(=O)C2=C(O1)c1c(ccc3ncccc13)NC2c1ccc(Cl)cc1Cl (stereo not drawn),14,/
Cc1nc(S(=O)(=O)NCCNc2ccc(-c3ccc(F)cc3)nn2)cn1C,/,-0.9
CC(Oc1ccc2c(-c3ccccc3)cc(=O)oc2c1)C(=O)ON1C(=O)CCC1=O (stereo not drawn),-4,-2.5
CN(C(=S)NCc1ccco1)C(c1ccccc1)c1ccccc1,4,/
O=C(c1ccco1)c1cn(CCOc2ccccc2Cl)c2ccccc12,-3,-2.5
OCCn1c(SC2CCCCC2)nc2ccccc21,10,-0.1
O=C(NNC(=S)NC1CCCCC1)c1ccncc1,/,-1.0
CCCn1c(SCC(O)c2ccc(OC)cc2)nc2ccccc21 (stereo not drawn),3,/
O=C(NCc1cccnc1)c1cnn2c1NC(c1ccccc1)CC2C(F)(F)F (stereo not drawn),6,0.2
Cn1c2c(c(=O)n(C)c1=O)C(c1cccc(Cl)c1)C1C(=O)c3ccccc3C1=N2 (stereo not drawn),18,0.5
O=C(Nc1ccccc1)c1cc(Br)cc2c1OCC2,/,-1.0
O=C(Cc1ccccc1)Nc1nn2c(COc3ccccc3)nnc2s1,9,1.6
Cc1cc(C=Nc2ccc(O)c(C(=O)O)c2)c(C)n1-c1ccc(N(C)C)cc1,0,-0.3
COc1ccc(NC(=O)Cc2c(F)c(F)c(F)c(F)c2F)cc1OC,3,1.6
COc1ccccc1OCCN1CCCCC1,16,-1.9
O=C(NO)C12CCC(CC1)C2,21,0.1
CC(C)CCNC(=O)C1CCN(C(=O)c2cc3sccc3n2Cc2ccc(F)cc2)CC1,-10,1.1
COC(=O)c1ccc2c(c1)C1C=CCC1C(c1ccc(F)cc1)N2 (stereo not drawn),/,0.9
Cc1nnc(Sc2nc(Nc3ccccc3)nc(Nc3ccccc3)n2)s1,10,0.2
c1ccc(C2OCC3(CO2)COC(c2ccccc2)OC3)cc1 (stereo not drawn),/,0.0
ON=Cc1cccn1-c1ccccc1,7,2.8
Cc1occc1C(=O)C(C#N)=C1SCCCCS1,/,-0.9
Cc1scc(-c2ccccc2)[n+]1C,16,-0.9
C/C=C/COC(=O)C1=C(C)NC(=O)NC1c1cc(Br)c(O)c(OC)c1 (stereo not drawn),/,0.7
CCOC(=O)C1CCCN(Cc2cc(=O)n3ccsc3n2)C1 (stereo not drawn),5,/
CCOC(=O)c1c[nH]c2cc3c(cc2c1=O)OCCO3,-7,/
CN(C)C(=O)CN(c1ccccc1)S(=O)(=O)c1ccccc1,14,0.2
c1ccc(Oc2ncnc3sccc23)cc1,-17,/
COc1ccc(Cc2nc3ccc(S(=O)(=O)N4CCOCC4)cc3[nH]2)cc1,-17,/
CCc1nn(-c2ccccc2)c2nc(-c3ccccc3O)c3cc(OC)c(OC)cc3c12,7,3.1
COc1ccc2cc(/C(C)=N/Oc3ncccc3[N+](=O)[O-])ccc2c1,/,0.1
O=C(O)CN1C(=O)S/C(=C\c2ccccc2Cl)C1=O,-12,/
C=CCn1c(=NC(=O)c2ccc(F)cc2)sc2cc(C(=O)OC)ccc21,1,/
Cc1cc2c(cc1S(=O)(=O)N1CCc3ccccc3C1)n(C)c(=O)c(=O)n2C,18,/
O=C(c1ccc(Cl)cc1Cl)n1c(=O)oc2cc(S(=O)(=O)N3CCCCC3)ccc21,17,1.4
O=C(Nc1ccccn1)c1cccs1,-5,3.0
O=C(NCCc1cn2ccccc2n1)c1cccs1,4,/
Cc1ccc(NC2(c3nnnn3CCOC(=O)Nc3ccc(Cl)cc3)CCCCC2)cc1,11,0.0
Cc1cc(/C=N/N2CCN(C)CC2)cc(C)c1O,4,0.4
CCC(CC)c1nc2ccccc2c(=O)[nH]1,0,2.3
Fc1ccc(CNCc2ccccc2)cc1,4,-22
CCn1cnc2c(=O)[nH][nH]c(=O)c21,-3,1.8
O=C(c1ccc(=O)[nH]c1)N1CCCCCC1,-2,/

# Sorted by the number under S aureus helic (descending): three from the list above
SMILES,S aureus helic,MgrA DNA FP
Cc1cc2c(cc1S(=O)(=O)N1CCc3ccccc3C1)n(C)c(=O)c(=O)n2C,18,/
O=C(Nc1ccccn1)c1cccs1,-5,3.0
O=C(O)CN1C(=O)S/C(=C\c2ccccc2Cl)C1=O,-12,/

# Screening results as filed in PubChem.

# Not all compounds are listed, so the mix of outcomes need not match the whole.
